rRNA inh HTS = selective bacterial rRNA inhibition in E. coli | E. coli WT GFP vs humanized-ribosome RFP mutants, fluorescence, 24 h; hits give low values; DMSO median 0, no signal -100 | GFP signal change (wild-type ribosome), % (test concentration not listed) | actives 1.6% (n = 350,000);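 active = significant combined selectivity score with lowered wild-type GFP, culture density cut under 30%, mutant RFP and density less affected; inactive = any of these conditions unmet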; note: one replicate is shown; some compounds called inactive have numbers as strong as hits
Beta cell apopt = beta cell apoptosis inhibition; INS-1E cytokine-induced death, ATP luminescence, 48 h; percent of positive-control rescue, neutral wells zero; protection from apoptosis, % (no concentration beside the values); actives 0.8% (n = 300,000);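 active = all replicates at 75% or more, or half of them and the mean; inconclusive = half reach 75% but not the mean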;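 note: 0% = cytokine-treated negative control wells and 100% = positive control rescue; higher means more ATP so stronger rescue from cytokine killing; wells of about 40 µL received 100 nL stock; the first replicate is given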
A1 inh = inhibitors of the anti-apoptotic protein A1, read as caspase activation; actives 0.066% (n = 330,000); MEF A1-2A-BIM cells, Caspase-Glo 3/7 luminescence, 3 h; percent of clofoctol response, vehicle zero; caspase activation, % (concentration not given with the values);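 active = over half of replicate activation scores above 10%, or exactly half above 10 with the replicate mean above 10; inconclusive = replicate mean below 10 yet half the replicates above 10; inactive = over half of replicates below 10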;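 note: wells of about 30 µL received 50 nL stock; many hits fall short of the cut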
UCH37 inh = blocks the human deubiquitinase UCH37; purified proteasome/UCH37, Ub-AMC cleavage fluorescence; actives 0.33% (n = 330,000); inhibition, % (test concentration not listed); Q9Y5K5;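 active = mean of two replicates above 20%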;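 note: 0% = compound-free wells with enzyme and 100% = wells lacking proteasome; stock transfer was 100 nL into about 20 µL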
Target sequence (Q9Y5K5 whole entry, looked up): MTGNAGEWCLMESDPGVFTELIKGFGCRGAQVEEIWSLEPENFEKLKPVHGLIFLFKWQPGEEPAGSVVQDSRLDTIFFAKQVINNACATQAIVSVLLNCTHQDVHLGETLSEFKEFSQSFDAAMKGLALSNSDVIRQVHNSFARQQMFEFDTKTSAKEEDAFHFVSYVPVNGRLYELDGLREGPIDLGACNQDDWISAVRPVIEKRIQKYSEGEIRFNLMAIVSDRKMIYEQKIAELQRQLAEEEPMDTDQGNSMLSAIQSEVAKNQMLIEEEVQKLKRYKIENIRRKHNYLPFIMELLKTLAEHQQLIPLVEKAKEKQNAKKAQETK
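system = Proteasome-associated human UCH37 deubiquitinase | amount = 0.15 nM proteasome as dispensed | medium = pH 7.4 Tris-HCl (50 mM) with ovalbumin, ATP-MgCl2, DTT | incubation = 30 min preincubation with enzyme, 25 min cleavage at room temperature | detection = AMC fluorescence 355/460 nm | read-out basis = percent inhibition | controls = no-proteasome and no-compound wells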
FGF22 binding = binders of recombinant human FGF22 by thermal shift; SYPRO orange fluorescence; percent of sucrose octasulfate shift, DMSO zero; calls only at 9.99 µM; actives 1.5% (n = 340,000);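 active = melting point raised past a set limit in the mean and every replicate; inconclusive = no clear call; three in four hits are not shown here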
Target sequence (Q9HCT0 whole entry, looked up): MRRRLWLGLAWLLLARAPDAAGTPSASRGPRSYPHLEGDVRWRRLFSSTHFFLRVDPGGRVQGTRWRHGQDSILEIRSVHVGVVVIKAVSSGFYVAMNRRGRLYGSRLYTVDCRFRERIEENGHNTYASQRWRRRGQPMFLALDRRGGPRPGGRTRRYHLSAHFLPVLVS
T cruzi repl = blocks replication of Trypanosoma cruzi | T. cruzi beta-gal in NIH3T3, luminescence, 90 h | inhibition, % (test concentration not listed) | actives 1.4% (n = 300,000) | AID 1885;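 active = mean inhibition across valid replicates above about 55%, limit read from the data; inconclusive = mean below that limit but half or more replicates reach it; inactive = mean below it, under half of replicates reach it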;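 note: signal also drops with host cell toxicity which is not excluded here; 0% = plate median of DMSO wells and 100% = zero luminescence signal; higher percent means less beta-gal luminescence so fewer parasites; stock transfer was 50 nL into about 50 µL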
MLL AF4-AF9 inh = blocks AF4 peptide binding to human AF9. AlphaScreen, biotin-AF4 peptide binding to FLAG-AF9. inhibition, % at 10 µM. actives 0.47% (n = 350,000). P42568;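 active = every replicate reaching a set inhibition limit, whatever the replicate mean, cut at about 25% in these data; inconclusive = mean inhibition reaches that limit but some replicates miss it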;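 note: 0% = plate neutral control median and 100% = total signal loss; the record names both 10 and 1 µM as test concentration; the first replicate is given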
Target sequence (P42568 whole entry, looked up): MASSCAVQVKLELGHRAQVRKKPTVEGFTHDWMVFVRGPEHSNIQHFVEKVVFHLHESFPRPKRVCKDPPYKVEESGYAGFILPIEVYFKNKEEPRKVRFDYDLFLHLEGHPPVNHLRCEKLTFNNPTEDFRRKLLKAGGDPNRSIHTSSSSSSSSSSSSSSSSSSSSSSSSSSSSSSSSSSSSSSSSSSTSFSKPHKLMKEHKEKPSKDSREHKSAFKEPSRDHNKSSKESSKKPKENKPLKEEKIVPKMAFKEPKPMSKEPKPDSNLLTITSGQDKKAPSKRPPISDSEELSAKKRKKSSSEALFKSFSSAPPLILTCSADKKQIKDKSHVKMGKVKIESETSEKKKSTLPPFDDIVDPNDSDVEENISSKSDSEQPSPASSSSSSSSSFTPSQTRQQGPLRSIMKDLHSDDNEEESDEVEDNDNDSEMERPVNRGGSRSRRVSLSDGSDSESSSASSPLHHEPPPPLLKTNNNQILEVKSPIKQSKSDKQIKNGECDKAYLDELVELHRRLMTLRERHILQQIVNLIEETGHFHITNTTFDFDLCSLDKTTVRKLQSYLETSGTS
Ecoli growth = inhibitors of Escherichia coli growth. OD600, 23 h; hits give low values. OD600 absorbance (test concentration not listed). actives 0.21% (n = 330,000). AID 1053175;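 active = OD600 absorbance below the run mean of sample wells minus 3.6 SD, in any replicate, cut at about 0.56 in these data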;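 note: stock transfer was 300 nL into about 60 µL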
rRNA inh HTS OD600 = also measured in rRNA inh HTS; calls as there; OD600 change, %; measured here: OD600 growth;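 optical density of the mix in the first replicate; 0 = DMSO median and -100 = no signal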
rRNA inh HTS RFP = recorded beside rRNA inh HTS, whose call it bears; RFP signal change, %; measured here: RFP humanized mutant strains;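 first replicate; 0 = DMSO median and -100 = no signal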
* hit, by the source's call; i = inactive; ? = inconclusive; . = no result given; & = joins results of further samples. Not all compounds are listed; rates above refer to the full screens.

SMILES	rRNA inh HTS	rRNA inh HTS OD600	rRNA inh HTS RFP	Beta cell apopt	A1 inh	UCH37 inh	FGF22 binding	T cruzi repl	MLL AF4-AF9 inh	Ecoli growth
O=C(Cn1cnc2ccccc2c1=O)c1cccs1	.	.	.	-0.8	0.0	1.7	.	0.5	.	0.659
O=C(Cn1cnc2ccc(Br)cc2c1=O)c1cccs1	.	.	.	-2.3	0.2	1.4	.	5.8	.	0.653
O=C(Cn1c(=O)c2cccn2c2ccc(F)cc21)NCCCN1CCN(c2ccccc2F)CC1	10.2	9.5	2.2	0.0	0.1	4.8	i	23.1	7.5	0.648
Cc1cccc([C@@H]2[C@@H]3C(=O)N(Cc4ccccc4)C(=O)[C@@H]3[C@]3(Cc4ccc(Cl)cc4)C(=O)N(c4cccc(Cl)c4)C(=O)N23)c1	5.8	1.4	-2.8	5.0	0.5	4.9	i	-3.4	-0.4	.
COc1ccc(NC(=O)/C(=C\c2ccc3c(c2)OCO3)NC(C)=O)cc1	.	.	.	-5.7	0.2	6.0	.	-2.2	.	0.684
COc1cc2c(cc1OC)C(c1cccs1)N(C(=O)c1cccc(S(=O)(=O)N(C)C)c1)CC2 (stereo not given)	-18.4	-12.2	13.8	3.5	-0.5	5.0	i	7.4	12.6	0.643
CCCCNC(=O)c1ccccc1NC(=O)C1=C(C)OCCS1	14.5	4.5	1.4	-2.0	-0.4	-0.4	i	-6.7	2.0	0.642
Cc1ccc(Cl)cc1N1CCN(C(=O)CN(c2ccccc2)S(=O)(=O)N(C)C)CC1	-24.6	-41.6	-4.0	-1.7	0.4	-1.3	i	16.6	1.1	0.635
Cc1ccccc1Nc1nc(N)nc(C)c1Br	-17.0	-19.6	-5.5	.	.	0.9	i	.	-0.7	0.642
COC(=O)c1scc(C#N)c1N/N=C(\C#N)S(=O)(=O)c1ccc(Cl)cc1	1.6	2.7	-1.3	-5.9	-0.5	.	i	-5.4	1.7	.
O=C(CCn1c(=O)sc2ccccc21)NCc1ccccc1	1.4	12.2	1.6	-13.8	-0.7	0.3	i	-6.1	-8.3	0.659
O=C(COC(=O)CNC(=O)c1ccccc1Cl)Nc1ccccc1Cl	-0.1	9.1	-3.1	-2.1	0.5	1.4	i	.	-5.4	0.648
COc1cccc(C=Nc2ccc(C)c(F)c2)c1O	.	.	.	.	-0.1	1.1	.	-18.1	.	0.686
COCCn1c(=NC(=O)c2cc3ccccc3oc2=O)sc2cc(S(N)(=O)=O)ccc21	.	.	.	9.8	0.3	-25.5	.	3.9	.	0.675
CCC[C@@H](CNC)NC[C@H](Cc1ccccc1)NCCCCc1ccccc1	-52.7	-80.2	-25.4	18.9	0.3	-0.3	i	31.2	-20.5	.
CCOC(=O)CCc1c(C)nc(SCC(=O)O)c(C#N)c1C	.	.	.	-7.8	0.5	4.5	.	-3.0	.	0.701
O=[N+]([O-])c1cc(C(F)(F)F)ccc1Oc1cccnc1[N+](=O)[O-]	.	.	.	-9.1	-0.9	2.3	.	35.7	.	0.721
Cc1ccc(S(=O)(=O)N2CCN(CC(=O)Nc3ccnn3C3CCCC3)CC2)cc1	1.6	13.0	-1.2	-3.5	0.1	0.8	i	.	-8.3	0.696
COc1ccc(/C=C/CN2CCN(Cc3ccccc3)C(CCO)C2)cc1 (stereo not given)	2.1	-0.5	1.6	-2.4	0.4	2.2	i	42.0	3.4	0.689
COc1ccc(CCNC(=O)c2cnn(-c3ccc(C)c(C)c3)c2NC(=O)c2ccco2)cc1OC	.	.	.	-3.5	0.5	-1.0	.	21.5	.	0.706
COc1ccc(/C=C(/NC(=O)c2ccccc2)C(=O)NC2CCS(=O)(=O)C2)cc1 (stereo not given)	8.6	10.4	2.2	-5.7	-0.8	4.8	i	-9.0	-0.2	0.705
Cc1nc2ccc(NC(=O)c3ccc(S(=O)(=O)N(C)c4ccccc4)cc3)cc2s1	.	.	.	5.0	0.3	4.6	.	25.8	.	.
CC(C)(C)c1ccc(C(=O)NCC(=O)N/N=C/c2ccccc2OCC(=O)O)cc1	0.4	1.1	-0.1	.	0.7	.	i	-30.3	-1.9	.
CC(C)c1ccc(NC(=O)C2CC3CCC2C3)cc1 (stereo not given)	-19.2	-24.6	-1.7	-1.8	-0.8	.	i	14.2	0.9	.
O=C(Nc1cccc(S(=O)(=O)C(F)F)c1)c1ccc(S(=O)(=O)N2CCOCC2)cc1	.	.	.	.	0.3	4.5	.	2.9	.	0.769
O=C(CCNC(=O)c1ccccc1Cl)NCc1ccncc1	6.2	6.2	-2.2	-0.6	-0.2	1.5	i	1.3	-8.7	0.673
Cc1cc(C)c(N2C(=NC(=O)CCCC(=O)O)SC3CS(=O)(=O)CC32)c(C)c1 (stereo not given)	.	.	.	-6.1	0.6	4.5	.	-6.9	.	0.711
O=C(O)CSc1nc2c(c(=O)[nH]1)CCCC2	.	.	.	3.5	0.1	2.6	.	-6.3	.	0.721
Cc1ccc(NC(=O)c2ccc3c(c2)OCCO3)cc1	.	.	.	2.2	-7.6	6.4	.	-6.2	.	0.665
C/C(=N\NC(=O)C(C)Sc1ccccc1)c1ccc([N+](=O)[O-])cc1 (stereo not given)	5.0	4.7	-0.6	.	0.0	.	i	-14.1	-1.8	.
O=C(CCN1C(=O)/C(=C/c2ccccc2F)SC1=S)NC1C=CS(=O)(=O)C1 (stereo not given)	-1.6	4.2	-3.0	-11.7	0.9	5.5	i	11.7	-2.9	0.742
CC(=O)c1sc2nc(-c3cccs3)ccc2c1N	.	.	.	-5.4	-0.3	-46.9	.	6.3	.	0.713
N=C1c2ccccc2CN1NC(=O)c1cccc(S(=O)(=O)N2CCCCC2)c1	8.1	6.7	3.5	2.1	1.1	2.8	i	-8.3	-3.8	0.693
Cc1nc2ccccc2c2c1C(=O)N(c1cccc(C(=O)O)c1)C2=O	6.7	3.4	-0.1	-2.3	0.3	2.1	i	-5.5	-8.8	0.73
Cc1ccc(C(=O)NCC(C)NC(=O)c2ccc(C)c([N+](=O)[O-])c2)cc1[N+](=O)[O-] (stereo not given)	13.8	8.6	-0.4	-2.0	0.2	4.9	i	-1.1	-3.1	0.684
COc1ccc(CNC(=O)COc2ccc(OC)cc2)cc1	5.0	5.8	2.1	-1.8	0.2	-0.8	i	2.6	-1.4	0.649
COc1ccc(C2CC(c3ccccc3Cl)Nc3ncnn32)cc1OC (stereo not given)	.	.	.	5.3	1.9	3.5	.	0.4	.	0.747
COc1cc(/C=N/Nc2ccc([N+](=O)[O-])cn2)cc(OC)c1O	-2.4	8.6	7.8	4.5	-0.3	.	i	-5.8	0.0	.
CCN(CC)c1ccc(C(=O)OCC(=O)N(C)Cc2ccccc2)cc1	-24.2	-35.0	-1.3	-9.5	1.3	7.5	i	14.5	-2.7	0.668
O=C(CN1C(=O)NC2(CCCCCC2)C1=O)NC1CC1	27.9	18.8	2.7	-5.8	-0.2	0.2	i	-8.8	-0.8	0.653
Cc1cn(C2CCC(CO)O2)c(=O)[nH]c1=O (stereo not given)	-13.4	-16.7	-0.5	-2.7	1.0	0.7	i	-1.5	-1.9	0.562
O=P(O)(O)c1cc(-c2ccccc2)oc1-c1ccccc1	1.6	0.8	-0.3	-5.6	0.4	-148.5	i	-15.3	-3.3	0.662
COc1cc(NC(=S)NCCCN2CCOCC2)c(OC)cc1Cl	4.2	1.2	0.0	-2.3	0.2	2.2	.	-3.0	-2.4	0.715
Cc1cc(N(C)C)ccc1N=Nc1ccc2ncccc2c1	-0.9	8.1	-3.8	-5.0	-6.9	2.5	i	4.4	5.2	0.697
O=S(NCc1ccccc1)C12CC3CC(CC(C3)C1)C2 (stereo not given)	16.1	-0.8	-0.8	-2.5	0.5	2.9	i	-6.4	10.0	0.721
O=C(Cn1cc(C(=O)C(F)(F)F)c2cc(Br)ccc21)N1CCOCC1	20.9	20.9	0.0	0.8	-1.2	1.8	i	14.6	-12.3	0.709
O=C(NC1CCCCCC1)c1cc2n(n1)C(C(F)(F)F)CC(c1ccco1)N2 (stereo not given)	.	.	.	5.0	?	15.4	.	17.1	.	0.727
COC(=O)C1=C(C)NC(=O)NC1c1cccc(OC)c1OCc1ccccc1 (stereo not given)	.	.	.	4.2	0.0	0.2	.	-5.1	.	0.756
Cc1cc(C)c(C)c(OCc2nc(-c3cccnc3)no2)c1	.	.	.	-7.1	-3.1	3.3	.	-12.5	.	0.709
CN(CC(=O)Nc1cccc2c1CCCC2)S(=O)(=O)c1ccc(Br)cc1	.	.	.	4.8	-0.2	4.9	.	-11.3	.	0.689
Other results follow.
SMILES	rRNA inh HTS	rRNA inh HTS OD600	rRNA inh HTS RFP	Beta cell apopt	A1 inh	UCH37 inh	FGF22 binding	T cruzi repl	MLL AF4-AF9 inh	Ecoli growth
Cc1ccc(S(=O)(=O)Nc2ccc3c(c2)CC(=O)N([C@H](C)CO)C[C@H](C)[C@H](CN(C)Cc2ccc4c(c2)OCO4)O3)cc1	3.6&-2.0	-50.9&-12.2	29.3&3.9	-3.1	-1.9	2.8	i	.	0.5	.
Cc1ccccc1NCC(=O)c1ccc(Br)cc1	4.3	5.0	-0.4	-0.9	0.3	1.7	i	4.8	7.2	0.674
CC(C)[C@H](NC(=O)c1ccccc1Cl)C(=O)Nc1ccc(S(=O)(=O)Nc2nccs2)cc1	1.4	2.3	3.9	-3.7	2.5	-2.6	i	.	-1.5	0.711
CC(C)Oc1cccc(-c2cc(C(=O)NC(=S)N(C)c3ccccc3C(=O)O)c3ccccc3n2)c1	.	.	.	0.9	-0.2	-184.8	.	10.0	.	0.643
COc1ccc(N2CCN(S(=O)(=O)CCNC(=O)C(C)Oc3ccccc3)CC2)cc1 (stereo not given)	-1.5	-3.4	-2.7	0.0	0.1	6.1	i	-8.9	2.0	0.679
Cc1ccc(C(C)C)c(O)c1	-2.8	1.4	9.7	1.1	-0.6	3.7	i	-8.1	0.2	0.688
CCCn1c(C)cc(/C=C(\C#N)C(=O)OCC(=O)Nc2cccc(S(N)(=O)=O)c2)c1C	-8.8	-33.4	6.9	6.0	-0.7	-1.9	i	.	-7.9	0.671
Cc1nnc(SCC(=O)Nc2cc(S(=O)(=O)N3CCCC3)ccc2Cl)s1	-6.3	-1.9	-0.8	-1.9	0.8	6.1	i	18.6	1.1	0.719
S=c1[nH]ncn1NCc1cccc(Br)c1	.	.	.	-8.0	1.3	2.8	i	-4.6	-2.6	0.593
CCN(CC(=O)Nc1c(F)cccc1F)C(=O)C1CC(=O)N(CCc2ccc(OC)c(OC)c2)C1 (stereo not given)	8.6	13.1	1.4	0.3	-1.1	-0.7	i	.	-1.2	0.667
CCOC(=O)c1c(CC(C)C)csc1NC(=O)COC(=O)c1cc(OC)c(OC)cc1[N+](=O)[O-]	10.1	13.3	1.5	21.6	-0.5	3.7	i	5.9	4.2	0.686
COC(=O)c1ccc(NC(=O)C(C)Oc2ccccc2)cc1 (stereo not given)	-14.1	-13.3	-1.6	-0.7	2.5	-3.3	.	-14.3	.	.
COc1ccc(C)cc1NC(=O)c1ccccc1NS(=O)(=O)c1ccc(Cl)s1	-57.4	-80.2	-17.4	36.2	-0.1	4.5	i	3.7	5.2	0.601

Bioassay records deposited in PubChem by several laboratories.
